RE007 growth inh = less growth of the S. pombe RE007 Vpr strain; Potency, µM (doses to about 92.2 µM), without a hit: at the top dose activity change, negative = less growth; AID 651644; 360,000 tested, 0.21% active; S. pombe RE007 Vpr strain, BacTiter-Glo ATP luminescence, 24 h; control for the full effect not named in the record; active = well fitted falling curve with a large enough effect; inconclusive = small, poorly fitted or top-dose-only effect; inactive = no such curve, though single readings can be large or run the other way;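 also: % is scaled to controls: 0 for no effect and ±100 for the full control effect; nearly all actives have a fitted effect of over 50% in size; the assay follows cell death caused by Vpr and the record does not say whether a fall means rescue or toxicity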
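Fission yeast RE007 carrying one integrated HIV-1 vpr copy, seeded at OD 0.01 in PMG+AL medium with 23 nL pinned compound. Grown 24 h at 30 degrees; viability read by BacTiter-Glo luminescence after 5 min.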
StopGo reporter = FMDV 2A StopGo reporter, luciferase signal. human cells with a luciferase reporter of 2A StopGo recoding; control for the full effect not named in the record. 410,000 tested, 1.2% active. AID 1159524. Potency, µM (top dose mostly 57.9 µM), for the others: at the top dose signal change, negative = less light; active = well fitted falling curve with a large enough effect; inconclusive = small, poorly fitted or top-dose-only effect; inactive = no such curve, though single readings can be large or run the other way; tested in HEK293T cells; also: % is scaled to controls: 0 for no effect and ±100 for the full control effect; nearly all actives have a fitted effect of over 45% in size; luciferase light after 4 h
Cruzain inh noDet = blocks cruzain activity in detergent-free assay. P25779. purified cruzain, Z-FR-AMC fluorescence, no detergent. Potency, µM, without a hit: max response, negative = inhibition, hits mostly inhibitors. 200,000 tested, 2.3% active;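 also: plate controls were enzyme without inhibitor for no effect and buffer without enzyme for full effect; nearly all actives have a fitted effect of over 40% in size; top concentration of the series not given in the record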
Target sequence (P25779 123-467 limits assumed): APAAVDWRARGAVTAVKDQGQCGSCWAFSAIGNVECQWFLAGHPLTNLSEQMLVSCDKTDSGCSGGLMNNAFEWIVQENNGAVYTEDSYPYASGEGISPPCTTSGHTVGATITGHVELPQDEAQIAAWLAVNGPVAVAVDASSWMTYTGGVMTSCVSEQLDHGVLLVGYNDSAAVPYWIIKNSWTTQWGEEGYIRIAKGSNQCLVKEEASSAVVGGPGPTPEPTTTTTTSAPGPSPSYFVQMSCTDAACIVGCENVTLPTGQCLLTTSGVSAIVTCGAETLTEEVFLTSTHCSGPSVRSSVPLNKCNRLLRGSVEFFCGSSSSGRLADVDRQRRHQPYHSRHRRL
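Detergent-free condition (0.00005% Triton X-100) in acetate buffer pH 5.5 with DTT. 1.5 nM enzyme and compound were pre-mixed 15 min, then 2 uM Z-FR-AMC substrate added; reaction progress from fluorescence change between first and third reads (60 s).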
Marburg entry inh = Marburg virus entry inhibition; Marburg virus pseudotyped entry inhibition, cell reporter; control for the full effect not named in the record; about a third of the inactives were read at about 46 µM; Potency, µM (series often up to 37.8 µM), without a hit: at the top dose activity change, negative = inhibition, actives largely listed as inhibitors; 300,000 tested, 1.8% active; AID 540276; active = well fitted inhibition curve with a large enough effect; inconclusive = small, poorly fitted or top-dose-only effect, or effect the other way; inactive = flat fitted curve, though single readings scatter; tested in HEK293 cells; about a fifth of its hits are not listed in these tables; also: % is scaled to controls: 0 for no effect and ±100 for the full control effect; luciferase read-out
NS1 function inh = blocks influenza NS1 protein function | S. cerevisiae slowed by influenza A NS1, growth recovery by OD600 | Potency, µM (titrated, usually from 46.1 µM), inactives show top-dose activity, positive = more growth | 270,000 tested, 0.4% active; active means well fitted rising curve with a large enough effect; inconclusive means small, poorly fitted or top-dose-only effect; inactive means no such curve, though single readings can be large or run the other way; also: nearly all actives have a fitted effect of over 50% in size
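In this qHTS, NS1 from influenza A is expressed in budding yeast, where it slows growth. Cells are switched from glucose to 2% galactose medium (pH 6.0, -URA), treated with compound, and growth recovery is read at OD600.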
Cruzain Triton = blocks cruzain activity in presence of Triton detergent | P25779 | purified cruzain, Z-FR-AMC fluorescence, 0.01% Triton | Potency, µM, for the others: max response, negative = inhibition, actives largely listed as inhibitors | 200,000 tested, 0.43% active | AID 1478;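 also: plate controls were neutral wells for no effect and buffer without enzyme for full effect; nearly all actives have a fitted effect of over 40% in size; top concentration of the series not given in the record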
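Detergent-containing arm of a paired screen for aggregation-based inhibition: 0.01% Triton X-100 present. Cruzain at 1.5 nM cleaved 2 uM Z-FR-AMC at pH 5.5 with 5 mM DTT; AMC fluorescence gain over 60 s measured activity.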
Lassa entry inh = blocks Lassa virus binding to or entry into cells; 300,000 tested, 1.2% active; Potency, µM (top dose mostly 37.9 µM), without a hit: top-dose activity change, negative = inhibition, usual class: inhibitors; AID 540256; Lassa virus pseudotype entry inhibition, cell reporter; control for the full effect not named in the record; active means well fitted inhibition curve with a large enough effect; inconclusive means small, poorly fitted or top-dose-only effect, or effect the other way; inactive means flat fitted curve, though single readings scatter; tested in HEK293 cells; also: % is scaled to controls: 0 for no effect and ±100 for the full control effect; nearly all actives have a fitted effect of over 50% in size; luciferase read-out
SARS PLP yeast = blocks SARS-CoV papain-like protease in a yeast assay; S. cerevisiae expressing SARS-CoV PLpro, growth rescue; control for the full effect not named in the record; Potency, µM (titrated, usually from 32.9 µM), inactives show at the highest dose activity, positive = growth rescue; 330,000 tested, 0.19% active; active means well fitted rising curve with a large enough effect; inconclusive means small, poorly fitted or top-dose-only effect; inactive means no such curve, though single readings can be large or run the other way; also: 0% is about no effect; nearly all actives have a fitted effect of over 55% in size; growth read by luminescence after 48 h
Active calls of the source: *; ? = inconclusive; · = no result given; & = joins results of further samples; [ ] = another dose, or the depositor's remark. Unless noted, calls follow the shape of the dose curve; as a rule, active = well fitted curve in the direction sought with a large enough effect; inconclusive = small, poorly fitted or top-dose-only effect, or another doubt; inactive = no such curve, though single readings can be large; an effect the other way counts as inactive or inconclusive. Potency is read from the fitted curve at half-maximal effect.

Results follow in this order: RE007 growth inh	StopGo reporter	Cruzain inh noDet	Marburg entry inh	NS1 function inh	Cruzain Triton	Lassa entry inh	SARS PLP yeast
[1] COc1ccc(C(N)=O)cc1NC(=O)CC(O)(C(F)(F)F)C(F)(F)F
  7%	·	3%	7%	0%	4.6%	-11%	2%
[2] COc1ccc(C2=NOC(COC(=O)c3ccc4ccccc4n3)C2)cc1 (stereo not drawn)
  -9%	22%	-9%	?	5%	-7.1%	8%	-3%
[3] CC1=NN(C(=O)c2ccccc2Cl)C(O)(c2ccccc2)C1 (stereo not drawn)
  8%	-17%	·	-14%[46.1 µM]	3%	·	2%[46.1 µM]	3%
[4] FC(F)(F)c1cccc(NC(=S)N2CCN(c3ccccc3)CC2)c1
  0%	0%	?	4%	22%	0.4%	?	6%
[5] COc1cc(C(=O)Oc2ccc3c(c2)OCC3=O)cc(OC)c1OC
  6%	-26%	-8%	-3%	3%	-1.1%	10%	-1%
[6] CCNc1nc2ccccc2[nH]1
  10%	1%	-4%	?	0%	-7.0%	10%	-7%
[7] CCCCc1cc(=O)oc2cc(C)cc(OCC(=O)N3CCC(C(=O)O)CC3)c12
  -9%	-26%	·	·	28%	·	·	1%
[8] CN(C)C(=S)SCC(=O)NCc1ccc(F)cc1
  13%	40%[activator]	·	?	·	·	8%	0%
[9] O=Cc1ccc(-c2ccc(Cl)cc2Cl)[nH]1
  -8%	6%	·	-21%	8%	·	-15%	-2%
[10] CC(C)NC(=O)CSc1nc2[nH]ncc2c(=O)[nH]1
  10%	3%	·	·	1%	·	·	2%
[11] O=C(CSCCO)Nc1ccccc1
  1%	4%	-2%	-1%	6%	1.2%	11%	·
[12] CCCCCNC(=O)c1ccc2c(=O)n(CC3CCCO3)c(=S)[nH]c2c1 (stereo not drawn)
  23%	?	·	1%[46.1 µM]	·	·	-12%	2%
[13] COc1cccc(CC(=O)OCC(=O)N(C)CC(=O)Nc2ccc(F)cc2)c1
  3%	-6%	·	10%	·	·	9%	-1%
[14] O=C(c1ccc(NS(=O)(=O)c2ccccc2)cc1)N1CCOCC1
  -2%	19%	·	?	-5%	·	·	2%
[15] CCOC(=O)C1=C(c2ccccc2)NC(=O)NC1c1cc(OC)c(OC)cc1OC (stereo not drawn)
  2%	-1%	·	?	-5%	·	-10%[46.1 µM]	1%
[16] Cn1c(=O)c2c(nc(N/N=C/c3cccs3)n2Cc2ccc(Br)cc2)n(C)c1=O
  6%	?	-22%	-7%	-19%	-11%	22%	-19%
[17] CCOc1ccc(CCN2C(=O)c3cccnc3C2=O)cc1OCC
  -11%	2%	·	4%[46.1 µM]	2%	·	25%[46.1 µM]	-2%
[18] CCN(CC(=O)Nc1ccc(NC(C)=O)cc1)C(=O)C1CCCC1
  -15%	-1%	·	?	·	·	-8%	5%
[19] CC(OC(=O)c1cc(=O)[nH]c2ccccc12)C(=O)Nc1ccc(Cl)cn1 (stereo not drawn)
  22%	32%[activator]	·	?	·	·	2%	-4%
[20] Cc1cc(C(=O)Nc2ccc(S(=O)(=O)Nc3onc(C)c3C)cc2)c(C)o1
  10%	-15%	-11%	?	-34%	-5.3%	30%[14.3 µM]	-3%
[21] CN(C)CCn1c(=S)[nH]c2ccccc2c1=O
  -1%	-6%	-6%	?	8%	-2.7%	-1%	14%
[22] Cc1cccc(C2NC(c3cccc(C)c3)C([N+](=O)[O-])C(C)(C)C2[N+](=O)[O-])c1 (stereo not drawn)
  -7%	?	-25%	7%	18%	-3.1%	-5%	?
[23] Cc1nn(-c2ccccc2)c2nc(C3CC3)cc(C(=O)Nc3cccc(F)c3)c12
  ·	?	?	·	·	-14%	?	·
[24] COc1ccc(Cl)cc1NC(=O)c1nnn(CC(=O)Nc2ccc(C)c(C)c2)c1N
  17%	2%	·	·	11%	·	·	14%
[25] O=C(CCc1ccccc1)N1N=C(c2ccncc2)CC1(O)C(F)(F)F (stereo not drawn)
  1%	15%	·	?	3%	·	?	-1%
[26] C#CCOCCOCCOCCNc1nc(N2CCN(C(=O)[C@H](CCC(=O)O)n3cc(C(N)CC(C)C)nn3)CC2)nc(N2CCN(C(=O)[C@H](Cc3cc4ccccc4[nH]3)n3cc(C(N)CC(C)C)nn3)CC2)n1 (stereo partly drawn)
  -4%	-18%	·	·	-1%	·	·	0%
[27] O=C(COc1ccc(Cl)cc1)NCc1nnc(SCC(=O)NC2CCCC2)o1
  2%	-20%	0%	?	-1%	4.7%	-1%	·
[28] O=CNC(=O)c1ccccc1C(=O)O
  -3%	-2%	0%	-3%&-3%	10%	2.0%	-10%	-1%
[29] O=C(C1CCCN(S(=O)(=O)c2ccc(F)cc2)C1)N1CCCCCC1 (stereo not drawn)
  3%	-29%	·	-21%	-6%	·	-14%	0%
[30] Cc1ccc(S(=O)(=O)N2CCC(C(=O)Nc3ccccc3N3CCCCC3)CC2)cc1C
  14%	-21%	·	13%	·	·	-20%[46.1 µM]	11%
[31] O=C(Nc1cccc(F)c1)Nc1ccnn1C1CCN(C(=O)c2ccccn2)CC1
  -1%	23%	·	?	10%	·	7%	2%
[32] CCOc1ccccc1Nc1nnc(SCC(=O)Nc2nc(-c3ccc(OC)cc3)cs2)s1
  -6%	10%	·	17%[46.1 µM]	12%	·	-2%[46.1 µM]	1%
[33] CCC(=O)Nc1ccc(C(=O)N2CCN(C(=O)c3ccco3)CC2)cc1
  -1%	-12%	·	-3%[46.1 µM]	0%	·	-9%[46.1 µM]	4%
[34] O=S(=O)(NCCSc1ccccc1)c1ccc(F)cc1
  1%	9%	3%	-4%	-38%	0.3%	15%	-17%
[35] CC(C)CCNC(=O)CCS(=O)(=O)c1cccc2nonc12
  10%	-19%	-10%	5%	2%	1.0%	8%	4%
[36] CC(=O)Nc1ccc(S(=O)(=O)NNC(=O)C2CCCCC2)cc1
  13%	-7%	·	27%[46.1 µM]	1%	·	14%[46.1 µM]	1%
[37] COc1ccc2cc(-c3nc(-c4ccc(N(C)C)cc4)no3)c(=O)oc2c1
  ·	8%	-14%	·	·	-0.7%	8%[46.1 µM]	·
[38] Cc1cc(C)[n+]2n1C(=O)C(c1ccccc1)=C2[O-]
  -1%&-7%	-1%&11%	-10%	?	-27%	-2.9%	28%[46.1 µM]	0%&-15%
[39] CCCCNC(=O)Nc1c(C(=O)OC)[nH]c2ccc(C)cc12
  1%	-30%	9%	-22%	7%	0.6%	-7%	3%
[40] C[C@]12CCC3C(CC[C@H]4C[C@H](O)CC[C@]34C)C1C[C@H](O)[C@@H]2O (stereo partly drawn)
  60%	-4%	·	?	·	·	11%	-1%
[41] COCCNC(=O)C(c1ccco1)N(C(=O)Cn1nnc2ccccc21)c1ccccc1C (stereo not drawn)
  -3%	39%[activator]	2%	5%[46.1 µM]	-3%	4.7%	-3%	1%
[42] COc1ccc(-c2cc3ccc(O)c(CN4CCC(C)CC4)c3oc2=O)cc1
  ·	-7%	18%	·	·	-0.1%	?	·
[43] Cc1cccc(NC(=O)NC2(C)CCS(=O)(=O)C2)c1 (stereo not drawn)
  15%	19%	·	-7%[46.1 µM]	?	·	-15%	0%
[44] COc1cccc(CNC(=O)c2cc(C)nc3c2c(C)nn3-c2cccc(F)c2)c1
  ·	-10%	1%	·	·	-5.5%	1%[46.1 µM]	·
[45] CN(Cc1cccnc1)C(=O)CNC(=O)c1ccc(Cl)cc1Cl
  10%	-16%	·	0%[46.1 µM]	3%	·	19%	3%
[46] COC(=O)CCCC(NC(=S)N1CC2C[C@@H](C1)Cn1c2cccc1=O)C(=O)OC (stereo partly drawn)
  1%	-20%	·	·	-6%	·	·	0%
[47] Cn1c(O)c(C=Nc2ccccc2Sc2ccccc2)c(=O)n(C)c1=O
  -4%	-15%	8%	20%	11%	-16%	?	15%
[48] Cc1ccc(C)n1-c1ccc(-c2ccn[nH]2)cc1
  -1%	12%	·	-11%[46.1 µM]	·	·	-19%	-5%
[49] C=CCn1c(O)c(C(C)=NCc2ccc3c(c2)OCO3)c(=O)[nH]c1=O
  -1%	0%	·	-4%[46.1 µM]	3%	·	-29%	3%
[50] CCOC(=O)c1cn[nH]c1C(F)(F)F
  6%	-2%	·	-3%[14.2 µM]	4%	·	23%	1%
[51] COc1cc(C(=O)Nc2ccc(C)cn2)c([N+](=O)[O-])cc1OC
  12%	4%	·	-2%	·	·	9%	0%
[52] CCCN1CCN(C(=O)Cn2c(-c3cccs3)cc3cc(F)ccc32)CC1
  ·	-23%	1%	-21%[46.1 µM]	·	-2.7%	10%[46.1 µM]	·
[53] Cn1nnnc1SCCNCc1ccccc1OCc1ccccc1F
  ·	?	-10%	?	·	1.0%	-10%[46.1 µM]	·
[54] O=C(NCCS(=O)(=O)N1CCN(c2cccc(Cl)c2)CC1)c1ccc2c(c1)OCO2
  -15%	-29%	·	6%	·	·	-6%[46.1 µM]	-21%
[55] Cc1ccc(C(=O)Oc2cc(C)[nH]c(=O)c2[N+](=O)[O-])cc1
  0%	-18%	·	29%[46.1 µM]	·	·	4%[46.1 µM]	1%
[56] COc1ccc(/C=C(\NC(=O)c2ccccc2)C(=O)NCCN2CCOCC2)cc1OC
  -6%	-24%	·	0%[46.1 µM]	6%	·	3%	1%
[57] CCOc1ccccc1N(C(=O)c1snc(C(N)=O)c1N)C(C(=O)NC1CCCC1)c1cccs1 (stereo not drawn)
  -9%	-25%	·	?	15%	·	?	0%
[58] CCc1ccc(N(C(=O)c2snc(C(N)=O)c2N)C(C(=O)NC2CCCC2)c2ccco2)cc1 (stereo not drawn)
  8%	5%	·	7.9µM*	-1%	·	?	0%
[59] CC(C)(CO)CNC(=O)CC1C(=O)NCCN1CC(c1ccccc1)c1ccccc1 (stereo not drawn)
  0%	1%	·	-12%[46.1 µM]	4%	·	-8%[46.1 µM]	1%
[60] CCOc1ccc(NC(=O)Cn2nnc(C(=O)NCc3ccc4c(c3)OCO4)c2N)cc1
  3%	-26%	·	·	2%	·	·	2%
[61] Cc1cccc(C(=O)NC(=S)Nc2cccc3nc(C)ccc23)c1
  -22%	?	·	-10%	-28%	·	?	1%

Screens as filed in PubChem.
